Source: PubChem
KSHV LANA nucl: inhibitors of KSHV LANA binding to nucleosomes | AID 720717 | z-score (no concentration beside the values) | FITC-LANA1-23 / chicken nucleosome fluorescence polarization; stronger effect = lower value | 0.3% of 51,000 active;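 active = both repeat wells score below -2 in polarization z-score versus plate sample wells, excluding overly bright wells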;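 note: 100 nL library stock added to about 30 µL; numbers are from one replicate; some results filed as inactive read as strong as hits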
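Material: Purified chicken nucleosomes with FITC-labelled LANA N-terminal peptide (1-23) | Reagent: 50 nM FITC-LANA1-23 probe | Medium: TEN-BT buffer, pH 7.5 | Times: 10–45 min incubation at room temperature | Detection: Fluorescence polarization | Replication: Duplicates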
BasE inh: blocks the Acinetobacter baumannii siderophore enzyme BasE; purified BasE, fluorescence polarization binding displacement; inhibition, % (concentration not given with the values); 0.1% of 84,000 active;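 active = both replicates above 25% with normal brightness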;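 note: 0% = negative plate control signal and 100% = positive plate control signal; stock transfer was 100 nL into about 30 µL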
* marks the source's active call; other numbers are inactive results; & = joins results of further samples.

`CC(C)Oc1ccccc1C1Nc2ccccc2C(=O)N1c1ccc2c(c1)OCCO2` (stereo not given) gave BasE inh -0.3.
Screening COc1cccc(-c2nnc(-c3ccccc3NS(=O)(=O)c3ccc(Cl)cc3)o2)c1 returned BasE inh 2.4.
`C[n+]1cccc(C(=O)NO)c1` gave BasE inh -2.6.
For CN1c2ccccc2-c2nc(SCC(=O)Nc3ccccc3F)ncc2S1(=O)=O the results were KSHV LANA nucl 1.7 and BasE inh 0.4.
For O=C(Cn1c(C(=O)N2CCN(C3CCCCC3)CC2)cc2sccc21)c1ccccc1 the results were KSHV LANA nucl 0.88 and BasE inh 1.6.
`O=C(NCC1CCN(S(=O)(=O)c2ccc(Cl)cc2)CC1)C1CCCO1` (stereo not given) gave KSHV LANA nucl -0.54 and BasE inh 1.1.
COc1ccc(CNC(=O)C2CCN(c3nc4cccnc4s3)CC2)c(OC)c1 was read as KSHV LANA nucl 0.33 and BasE inh 5.0.
`Cc1ccc(-c2nc(CSCC(=O)N3CCC(C(N)=O)CC3)c(C)o2)cc1` gave KSHV LANA nucl 0.55 and BasE inh 1.9.
For CCC(C)c1ccc(S(=O)(=O)N2CCN(C(C)C(=O)NC3CC3)CC2)cc1 (stereo not given) the results were BasE inh 3.0.
COCCn1c(C)cc(/C=C(\C#N)C(=O)OCc2cc(=O)n3c(n2)sc2ccccc23)c1C was read as BasE inh -1.4.
For Cc1ccc2nc(Cl)c(CO)cc2c1 the results were KSHV LANA nucl 0.33 and BasE inh 1.1.
NNC(=O)Nc1ccc(C(F)(F)F)cc1Cl was read as KSHV LANA nucl -0.0075 and BasE inh 0.0.
CC1SCCN1S(=O)(=O)c1ccc2ccccc2c1 (stereo not given) was read as BasE inh -2.9.
`CC(=O)Oc1ccc2c(=O)c(-c3cc4ccccc4o3)coc2c1` gave KSHV LANA nucl -0.77 and BasE inh 2.5.
For Cc1ccccc1-n1c(=O)c2ccccc2n2cnnc12 the results were BasE inh 1.1.

Overlap with the part before: five entries, then new ones.
For Cc1ccc2nc(Cl)c(CO)cc2c1 the results were KSHV LANA nucl 0.33 and BasE inh 1.1.
NNC(=O)Nc1ccc(C(F)(F)F)cc1Cl was read as KSHV LANA nucl -0.0075 and BasE inh 0.0.
CC1SCCN1S(=O)(=O)c1ccc2ccccc2c1 (stereo not given) was read as BasE inh -2.9.
`CC(=O)Oc1ccc2c(=O)c(-c3cc4ccccc4o3)coc2c1` gave KSHV LANA nucl -0.77 and BasE inh 2.5.
For Cc1ccccc1-n1c(=O)c2ccccc2n2cnnc12 the results were BasE inh 1.1.
CN1CCN(C(=O)c2cc3c(n(-c4ccccc4)c2=O)CCCC3=O)CC1 was read as KSHV LANA nucl -1.6 and BasE inh 1.4.
`O=C(CN1C(=O)C2C3C=CC(C3)C2C1=O)Nc1ccccc1` (stereo not given) gave KSHV LANA nucl 1 and BasE inh -1.8.
Screening CCS(=O)(=O)c1ccccc1C(=O)O returned KSHV LANA nucl -0.23 and BasE inh -0.8.
For CN(C)c1ccc(/C=C/C#N)cc1 the results were KSHV LANA nucl 0.046.
`COc1cc2c(cc1OC)C(C(=O)N1CCCC1)C(c1ccccc1F)N(C)C2=O` (stereo not given) gave KSHV LANA nucl 0.88 and BasE inh -4.7.
`CCC(C)(C)n1nnnc1C(c1cccnc1)N1CCCC(C)C1` (stereo not given) gave KSHV LANA nucl -0.065 and BasE inh -1.1.
For CCNC(=S)N1CCC(n2cnc3ccccc32)CC1 the results were KSHV LANA nucl -1.3 and BasE inh 1.1.
`Cc1ccc(-n2cnnn2)cc1Cl` gave KSHV LANA nucl 0.12 and BasE inh -5.5.
`Cn1c(=O)n(C)c2cc(S(=O)(=O)N(Cc3ccccc3)C(=O)c3ccncc3)ccc21` gave KSHV LANA nucl 0.6 and BasE inh -1.3.
COc1ccc2nc(SCC(=O)N3CCCCC3)c(C#N)cc2c1 was read as KSHV LANA nucl -0.99 and BasE inh -7.6.
`OCc1ccccc1O[C@@H]1O[C@H](CO)[C@@H](O)[C@H](O)[C@H]1O` gave KSHV LANA nucl 0.047&-0.92 and BasE inh -0.2.
Nc1nn2c([n+]1N)N=C(c1ccccc1)C2 was read as BasE inh 6.9.
For CC1CN(C(=O)COC(=O)c2ccccc2NS(C)(=O)=O)CC(C)O1 (stereo not given) the results were BasE inh 1.1.
Screening CCC(Sc1nc(O)cc(=O)[nH]1)C(=O)Nc1nnc(C(C)C)s1 (stereo not given) returned KSHV LANA nucl 3.1 and BasE inh -1.3.
For CCOC(=O)C1=C(C)Nc2ccccc2N=C1NC(=O)Cc1coc2cc(C)c(C)cc12 the results were BasE inh -1.1.
C/C(N)=C(/C#N)C(=O)Cn1cc(S(=O)(=O)N2CCCC2)ccc1=O was read as BasE inh 0.9.
Screening CC(C)c1ccc(C2C(C#N)=C3N=C(N)c4ccccc4N3C3=C2C(=O)CCC3)cc1 (stereo not given) returned KSHV LANA nucl 0.082 and BasE inh -1.0.
For COc1ccc(CC(=O)N(Cc2ccccc2)C(C)C)cc1 the results were KSHV LANA nucl -0.23 and BasE inh -2.5.
`CC(C)n1c(NC(=O)Nc2ccccc2)c2ccccc2nc1=O` gave KSHV LANA nucl -0.86 and BasE inh -0.7.
For CCN(CC(=O)Nc1ccc(OC)cc1)CC(=O)Nc1ccc(C(N)=O)cc1 the results were BasE inh -2.7.
For COc1ccc(OC)c(S(=O)(=O)NCC(c2ccc(F)cc2)N2CCN(C)CC2)c1 (stereo not given) the results were KSHV LANA nucl -0.02 and BasE inh -1.6.
Screening COCC(C)Nc1nc(-c2ccccc2F)cs1 (stereo not given) returned BasE inh 1.9.
For O=C(c1cc(C(F)(F)F)cc(C(F)(F)F)c1)N1CCN(Cc2ccc3c(c2)OCO3)CC1 the results were KSHV LANA nucl 2.7 and BasE inh -2.7.
COc1cc(Cl)c(C)cc1NC(=O)COC(=O)c1n[nH]c2ccccc12 was read as BasE inh -5.6.
`O=C(O)c1ccc(N2C(=O)C3C4c5ccccc5C(CO)(c5ccccc54)C3C2=O)cc1` (stereo not given) gave KSHV LANA nucl 0.3 and BasE inh 1.7.
For CC(C)N(CC(N)=O)Cc1ccc(-c2ccccc2)cc1 the results were BasE inh 0.9.
COCCN1Cc2cccc(C(=O)NCc3cccnc3)c2C1=O was read as KSHV LANA nucl -0.39 and BasE inh 0.9.
For Cc1ccccc1NC(=S)NCc1cccn1C the results were KSHV LANA nucl -0.2 and BasE inh 0.6.
For NC(=O)/C(=C/c1ccc2c(c1)OCO2)NC(=O)c1ccc(Br)cc1 the results were BasE inh -4.0.
`NC(=O)c1c(C(F)(F)F)cc(-c2ccccc2)nc1NCCO` gave BasE inh 0.2.
COCCNC(=O)c1nc(-c2ccc(C(F)(F)F)cc2)no1 was read as KSHV LANA nucl 0.53 and BasE inh 1.7.
Cc1ccc(-c2nc(CN(C)C)cc(CN(C)C)c2O)cc1 was read as KSHV LANA nucl -0.11 and BasE inh 0.9.
`CCCSc1nc2cn(CC)nc2c(=O)n1Cc1ccccc1` gave BasE inh -2.5.
`CC(OC(=O)c1ccncc1)C(=O)Nc1ccc(Cl)cc1Cl` (stereo not given) gave BasE inh -3.3.
`O=C(C1CCC1)N1CCC(Oc2nnc(-c3ccccc3)o2)CC1` gave KSHV LANA nucl 0.0015 and BasE inh 0.2.
OC[C@H]1OC([S-])[C@H](O)[C@@H](O)[C@@H]1O.[Au+] (stereo not given in full) was read as KSHV LANA nucl 0.51.
CCOC(=O)C1CCN(C(=O)COc2cc(=O)n(C)c3ccccc23)CC1 was read as KSHV LANA nucl -0.49 and BasE inh 17.
`COc1cc(NC(=S)NC(C)c2cn(C)nc2C)cc(OC)c1` (stereo not given) gave KSHV LANA nucl -0.63 and BasE inh -0.1.
`COc1cc(OC)c(OC)cc1/C=N/NC(N)=O` gave BasE inh -1.4.
Cn1c(=O)cc(OCC(=O)N2CCC(N3CCCCC3)CC2)c2ccccc21 was read as KSHV LANA nucl -0.27 and BasE inh -0.6.
`Cc1ccc2[nH]cc(CCNS(C)(=O)=O)c2c1` gave KSHV LANA nucl 2.5 and BasE inh -0.6.
O=C(O)Cc1cn(-c2ncc(C(F)(F)F)cc2Cl)c2ccccc12 was read as KSHV LANA nucl -0.093.
Screening COc1ccc(N=Nc2c(C)nn(-c3ccc(C)cc3)c2N)cc1OC returned BasE inh 0.8.
Screening Cc1nc2nc(C3CCN(C(=O)OC(C)(C)C)CC3)nn2c(C)c1CCC(=O)O returned KSHV LANA nucl 2.3 and BasE inh -2.6.
`COC(=O)C(C(C)C)N1C(=O)C2C3C=CC(C3)C2C1=O` (stereo not given) gave BasE inh 0.5.

Three compounds out of the list, ordered by count of non-hydrogen atoms, highest first.
Screening COc1ccc(N=Nc2c(C)nn(-c3ccc(C)cc3)c2N)cc1OC returned BasE inh 0.8.
`CC(OC(=O)c1ccncc1)C(=O)Nc1ccc(Cl)cc1Cl` (stereo not given) gave BasE inh -3.3.
`COc1cc(OC)c(OC)cc1/C=N/NC(N)=O` gave BasE inh -1.4.

Among those listed so far, 2 contain a furan ring, fused or not:
`CC(=O)Oc1ccc2c(=O)c(-c3cc4ccccc4o3)coc2c1` gave KSHV LANA nucl -0.77 and BasE inh 2.5.
For CCOC(=O)C1=C(C)Nc2ccccc2N=C1NC(=O)Cc1coc2cc(C)c(C)cc12 the results were BasE inh -1.1.

Additional compounds
For COc1ccc(/C=C/C(=O)Nc2ccc(N3CCOCC3)c(Cl)c2)cc1 the results were BasE inh -1.4.
Screening COc1cccc(C2=NOC(C(=O)Nc3ccc4c(c3)OCO4)C2)c1 (stereo not given) returned KSHV LANA nucl -1 and BasE inh -1.3.
O=C1C2C3C=CC(C3)C2C(=O)N1c1ccc(-c2nc3ccccc3o2)cc1 (stereo not given) was read as KSHV LANA nucl 0.84 and BasE inh -1.4.
COc1ccccc1C(CC(=O)NC1CCOC(C)(C)C1)c1ccc(OC(C)C)cc1 (stereo not given) was read as BasE inh 0.3.
`CN1CCN(NC(=O)c2csc3ccccc23)CC1` gave KSHV LANA nucl 2.3 and BasE inh -3.3.
For CCNC(=O)CC1C(=O)N(c2ccc(F)cc2)C(=O)N1Cc1ccc(F)cc1 (stereo not given) the results were KSHV LANA nucl -0.47 and BasE inh 0.2.
CN(c1ccnc(C(=O)NCc2ccccn2)c1)S(=O)(=O)c1ccccc1 was read as KSHV LANA nucl -0.62 and BasE inh -1.1.
For O=c1oc(-c2cc3c(s2)CCC3)nn1CCN1CCCC1 the results were KSHV LANA nucl 0.49 and BasE inh 0.9.
For Cc1ccc(C2C(C#N)=C(N)N(N3CCOCC3)C3=C2C(=O)CC(C)(C)C3)cc1 (stereo not given) the results were KSHV LANA nucl 0.066 and BasE inh -1.4.
`Cc1ccc(-n2nc(C)cc2N)cc1` gave KSHV LANA nucl 0.23 and BasE inh 0.7.
For Cc1c(C(=O)N2CCCC2)oc2ccc3c(c12)C(O)CC1(CCCCC1)O3 (stereo not given) the results were KSHV LANA nucl 0.61 and BasE inh -1.2.
For CN(CC(=O)c1c(N)n(C)c(=O)n(C)c1=O)Cc1nc2ccccc2c(=O)[nH]1 the results were BasE inh 0.7.
COc1ccc(CC(=O)N2CCC(c3ccccc3)C2)cc1 (stereo not given) was read as BasE inh 1.2.
For CS(=O)(=O)c1ncc(Cl)c(C(=O)NCCc2ccc(S(N)(=O)=O)cc2)n1 the results were KSHV LANA nucl 2.2 and BasE inh -2.0.
CCOc1cc(C2NC(=O)c3ccccc3O2)ccc1OCC(=O)OC (stereo not given) was read as KSHV LANA nucl -0.53 and BasE inh -0.2.

Three entries picked at random from those above, as already listed:
For CCNC(=O)CC1C(=O)N(c2ccc(F)cc2)C(=O)N1Cc1ccc(F)cc1 (stereo not given) the results were KSHV LANA nucl -0.47 and BasE inh 0.2.
`CN1CCN(NC(=O)c2csc3ccccc23)CC1` gave KSHV LANA nucl 2.3 and BasE inh -3.3.
For CS(=O)(=O)c1ncc(Cl)c(C(=O)NCCc2ccc(S(N)(=O)=O)cc2)n1 the results were KSHV LANA nucl 2.2 and BasE inh -2.0.

Following part
Screening Cc1ccc2c(c1)c1nc3n(c(=O)c1n2CC(=O)N1CCCC1)CCS3 returned KSHV LANA nucl 0.81 and BasE inh -0.1.
COC(=O)N1N=C(c2ccccc2)CC1(O)C(F)(F)F (stereo not given) was read as KSHV LANA nucl -1.6 and BasE inh -1.3.
`O=C1CC(C2CCCC=C2N2CCCCC2)C(=O)N1c1ccccc1` (stereo not given) gave KSHV LANA nucl -0.26 and BasE inh 1.3.
`CCOc1ccc2nc(Cl)c(CN(Cc3ccco3)C(=O)N(C)C)cc2c1` gave KSHV LANA nucl 0.11 and BasE inh 4.0.
For FC(F)(F)c1cnc(-n2cc(C3OCCO3)c3ccccc32)c(Cl)c1 the results were KSHV LANA nucl -0.21.
Screening C[N+](C)(C)CCOP(=O)([O-])OP(=O)(O)OC[C@H]1OC(n2ccc(N)nc2=O)[C@H](O)[C@@H]1O (stereo not given in full) returned KSHV LANA nucl 0.53&0.55 and BasE inh -0.2.
N#Cc1c(-c2ccc3c(c2)OCO3)cc(-c2ccccc2O)[nH]c1=O was read as BasE inh 12.
For COc1ccc(NC(=O)CSc2nc(C)c(C)c(=O)[nH]2)cc1OC the results were KSHV LANA nucl 0.026 and BasE inh 1.5.
For CN1C(=O)/C(=C/c2c(N3CCSCC3)nc3ccccn3c2=O)SC1=S the results were KSHV LANA nucl 0.21 and BasE inh -1.9.
CC(=O)NCc1ccc(C(=O)CSc2nc3ccccc3c(=O)n2-c2ccc(Cl)cc2)o1 was read as BasE inh -5.3.
`O=C1OC2CC3CC(C2)CC1C3` gave KSHV LANA nucl -0.26 and BasE inh 2.2.
`Cc1ccc(-c2csc(=N)n2-c2ccccc2)cc1` gave BasE inh -0.1.
Screening CC1(C)CC(=O)C(C=NCCC(=O)O)=C(O)C1 returned BasE inh -0.2.
`CC(=O)OC(CC(=O)O)Cc1nc2ccccc2s1` (stereo not given) gave BasE inh 1.3.

An excerpt; the hit share may differ from the screen's.
